Bioassay records deposited in PubChem by National Center for Advancing Translational Sciences (NCATS).
VACV Venus inh: qHTS for Stage-Specific Inhibitors of Vaccinia Orthopoxvirus: Venus Reporter Primary qHTS | hit rate 0.46% among 330,000 | Potency, µM (series often up to 36.5 µM), for the others: top-dose activity change, negative = inhibition, usual class: inhibitors | Vaccinia virus Venus reporter expression, fluorescence | AID 720580, 2013; active means well fitted inhibition curve with a large enough effect; inconclusive means small, poorly fitted or top-dose-only effect; inactive means no such curve, though single readings can be large or run the other way; tested in A549 cells; further: nearly all actives have a fitted effect of over 30% in size; inactives centre near -10
VACV mCherry inh: qHTS for Stage-Specific Inhibitors of Vaccinia Orthopoxvirus: mCherry Reporter Primary qHTS | Vaccinia virus mCherry reporter infection, fluorescence; about a quarter of the inactives have no number | hit rate 0.63% among 310,000 | AID 720579, 2013 | Potency, µM (top dose mostly 36.5 µM), for the others: at the highest dose activity change, negative = inhibition, usual class: inhibitors; active = well fitted inhibition curve with a large enough effect; inconclusive = small, poorly fitted or top-dose-only effect; inactive = no such curve, though single readings can be large or run the other way; tested in A549 cells; further: nearly all actives have a fitted effect of over 35% in size; inactives centre near -10
Numbers without * were called inactive; i = inactive; ? = inconclusive; / = not tested or not shown; & = joins results of further samples. On the % scale 0 is the no-effect control and ±100 the full control effect; potency means the concentration at half of the fitted maximal effect.

SMILES | VACV Venus inh | VACV mCherry inh
Cc1n[nH]c(C)c1Sc1ccccc1[N+](=O)[O-] | -6% | 1%
Cc1ccc(C(=O)Nc2cc(C)nn2CCC#N)cc1 | -4% | 23%
CCCSc1ncc(Cl)c(C(=O)Nc2sc3c(c2C(=O)OC)CCCC3)n1 | -1%&-8% | 0%&-1%
CC1(C(=O)Nc2ccc3nc[nH]c3c2)CCN1C(=O)C1(c2ccccc2)CCCC1 (stereo not given) | -3% | 7%
COC(=O)c1[nH]nc2c1C(=O)N(Cc1ccccc1)C2=O | ? | /
COCCN(Cc1nc(-c2ccc(C(F)(F)F)cc2)no1)C(C)C | -1% | i
CC1(C)CC(n2[nH]c(=O)c3c2NC(=O)CSC3c2ccccc2)CCO1 (stereo not given) | -24% | -6%
COC(=O)c1cccc(S(=O)(=O)N2CCCC2)c1 | -17% | i
O=C(Nc1ccc(F)c(S(=O)(=O)N2CCOCC2)c1)C1CCCCC1 | -18% | -10%
O=C(NC(c1ccc2ccccc2n1)c1cccs1)C1CCN(Cc2cccc(C(F)(F)F)c2)CC1 (stereo not given) | ? | ?
COc1ccccc1Oc1ccc(NC(=O)c2ccccc2)cc1 | -2% | -3%
CCOC(=O)c1ccc(-c2ccc(/C=C(\C#N)C(=O)NCc3cccs3)o2)cc1 | 1% | 1%
CCOCCSC1=C(C#N)C(c2cccs2)C(C(C)=O)=C(C)N1 (stereo not given) | ? | i
Cc1ccc(Cn2c(C)c3cnn(CC(=O)O)c(=O)c3c2C)cc1 | 0% | 2%
COc1ccc(NC(=O)Nc2cccc3c2O[C@H](CN(C)Cc2ccc(-c4ccccc4)cc2)[C@@H](C)CN([C@H](C)CO)C3=O)cc1 | ? | -8%
CC1(C(=O)NS(=O)(=O)C2CC2)CCN(C(=O)c2cccc(Cl)c2)C1 (stereo not given) | -18% | i
COc1ccc(C(CNC(=O)c2ccc(-c3ccccc3Cl)o2)N2CCOCC2)cc1 (stereo not given) | -21% | -13%
CC(C)=CC/C=C1\CCC(C(=O)O)C(C(=O)O)C1 (stereo not given) | -5% | -3%
COc1ccccc1CC(=O)Nc1ccc([N+](=O)[O-])cc1OC | -12% | -5%
O=C(N/N=C/c1cn(-c2ccccc2)nc1-c1cccs1)c1ccc(Cl)cc1 | ? | -19%
Cc1cccc(NS(=O)(=O)c2ccc(C(=O)NCC3(N4CCCCC4)CCCCC3)cc2)c1C | -28% | -9%
CCN1CCc2nc3sc(C(=O)Nc4ccccc4OC(F)(F)F)c(N)c3cc2C1 | -6% | -9%
CCc1nc2ccc(C(=O)NCC3CCCCC3)cn2c1N(C)Cc1ccc(OC)cc1 | -12% | i
CN(CC(=O)Nc1cccc(C#N)c1)Cc1ccc(Cl)cc1 | -16% | -7%
CC(=O)c1cccc(N(C(=O)CNC(=O)c2ccco2)C(C(=O)NC2CCCC2)c2ccc(C)o2)c1 (stereo not given) | -7% | i
SMILES | VACV Venus inh | VACV mCherry inh
COc1ccccc1NC(=O)CSC1=Nc2ccccc2C2=NC(CC(=O)NCCc3ccccc3)C(=O)N12 (stereo not given) | -9% | -13%
CC(C)n1c(SCC(=O)N2c3ccccc3Sc3ccccc32)nc2c1c(=O)n(C)c(=O)n2C | -17% | i
CCc1ccc(NC(=O)CSc2nnc(SCC(=O)Nc3ccc(CC)cc3)n2N)cc1 | ? | /
O=C1CCCN1c1ccc(S(=O)(=O)O)cc1 (tested in a mixture with another compound) | -7% | i
Cc1csc(NC(=O)c2cccc(S(=O)(=O)N3CCCCC3)c2)n1 | -19% | -28%
C=CCNC(=O)c1cc(Cl)ccc1Cl | -4% | i
Cc1nn(-c2ccccc2)c(C)c1NC(=O)COC(=O)c1ccc(O)cc1O | 9% | -5%
O=C(Nc1ccc(F)cc1F)c1ccc(-c2ccccc2)s1 | 5% | 0%
CCCCN1CC[C@H]2C=CC[C@@H](C(=O)Nc3nccs3)[C@H]2C1=O | -6%&-18% | -22%&-11%
N#CC1(NC(=O)CSc2nnc(Nc3ccccc3F)s2)CCCC1 | -7% | -10%
Cc1cc2ccccc2n1CCNC(=O)c1ccc(S(=O)(=O)N2CCOCC2)cc1 | -18% | i
N#CC(c1ccccc1)c1ccc(C(=O)c2ccc(F)cc2)cc1 (stereo not given) | ? | /
O=c1cc(-c2ccccc2)nc(SCc2nc(-c3ccc(C(F)(F)F)cc3)no2)[nH]1 | 5% | -6%
N#Cc1cccc(NC(=O)CN2NS(=O)(=O)c3ccccc3C2=O)c1 | -12% | i
Cn1ncc2c(N3CCN(c4ccc(Cl)c(Cl)c4)CC3)ncnc21 | -16% | -27%
O=C(Cn1c(=O)oc2cc(Cl)ccc21)Nc1cccc(C(F)(F)F)c1 | -28% | -19%
COc1cccc(C(=O)N2[C@H](COCc3ccccc3)C=CS2(=O)=O)c1 | 1% | 26%
CC(C)[C@H](NC(=O)c1ccco1)C(=O)OCC(=O)Nc1ccc(F)cc1 | -10% | -7%
CC1Cc2cc(S(=O)(=O)NCCc3ccccc3)ccc2N1C(=O)C1CCC1 (stereo not given) | -15% | -12%
Cc1cc(C)c(CN2CCN(C(=O)Cn3cnc4c(OCc5ccccc5)ncnc43)CC2)c(C)c1 | ? | ?
Cc1ccc(SCCC(=O)N2CCC(C(N)=O)CC2)cc1 | -3% | -16%
COc1cc2c(cc1OC)C(COc1ccccc1OC)N(C(=O)COc1ccc(Cl)cc1)CC2 (stereo not given) | -13% | -18%
Cc1ccc(Cn2nc(C(=O)Nc3ccc(Br)cc3)cc2C)cc1 | -30% | -15%
COc1ccc(NC(=O)c2sc3nc4c(cc3c2N)CN(Cc2ccccc2)CC4)c(OC)c1 | -10% | -3%
CC1(C)NC(=O)N(CC(=O)N2CCC(Cc3ccccc3)CC2)C1=O | -9% | -4%
SMILES | VACV Venus inh | VACV mCherry inh
O=C(CSc1nnc(CNC(=O)c2c(F)cccc2Cl)o1)NC1CCCC1 | -9% | -4%
Cc1ccc2nc(SCC(=O)Nc3ccc4c(c3)CCC4)[nH]c2c1 | -22% | i
O=C(NCCc1ccccc1)C1CCC(CNS(=O)(=O)c2cccs2)CC1 (stereo not given) | -5% | -28%
Cc1nc2ccccn2c1/C(O)=C1\C(=O)C(=O)N(CCN2CCOCC2)C1c1cccnc1 (stereo not given) | 7% | /
O=C(Cn1c2ccccc2c2nc3n(c(=O)c21)CCS3)N1CCCC1 | 0% | 0%
Cn1c(N)c(C(=O)COC(=O)Cc2ccc(Cl)cc2)c(=O)n(C)c1=O | -7% | i
CCOCCc1nn2c(=O)cc(COC(=O)c3ccc(NC(=O)c4ccc(F)cc4)cc3)nc2s1 | -4% | -6%
CCOC(=O)c1cc2c(c(-c3ccccc3)n1)[C@H](CCO)N(S(=O)(=O)C(C)(C)C)C2 | -11% | i
CCOC(=O)N1CC(C)N(C(=S)Nc2ccccc2)CC1C (stereo not given) | 5% | -7%
CCC(C(=O)Nc1cc(Cl)ccc1OC)n1nc(-c2ccccc2)ccc1=O (stereo not given) | -16% | -14%
Cc1cc(C)nc(SCC(=O)Nc2nccs2)n1 | 13% | -8%
CCOC(=O)C1CCCN(c2c(NCCCN(C)c3ccccc3)c(=O)c2=O)C1 (stereo not given) | -3% | i
Cc1cc(=O)[nH]c(SCC(=O)NNC(=O)Cc2ccccc2)n1 | -9% | i
Fc1ccc(-n2c(-c3ccco3)n[nH]c2=S)cc1 | -11% | -15%
O=C(COC(=O)c1cc(Br)ccc1O)NNC(=O)c1cccs1 | -1% | -11%
C[C@@H]1CCCCCCCCC(=O)OCCN(C(=O)OC(C)(C)C)[C@H](C)CCCCCCCCC(=O)OCCN(C(=O)OC(C)(C)C)[C@H](C)CCCCCCCCC(=O)OCCN(C(=O)OC(C)(C)C)[C@H](C)CCCCCCCCC(=O)OCCN1C(=O)OC(C)(C)C | -9% | i
O=C(NCCCc1ccccc1)Nc1ccccc1 | -17% | -12%
Cc1c2cnn(CC(=O)N3CCC4(CC3)OCCO4)c(=O)c2c(C)n1Cc1ccc(F)cc1 | -22% | /
Cc1ccc(OCCCCN(C)Cc2ccccc2)c(Br)c1 | ? | ?
CCCCC(=O)N(c1ccc(C)c(C)c1)C1C=CS(=O)(=O)C1 (stereo not given) | -14% | i
Cn1c(=O)[nH]c(=O)c2c1nc(N1CCCCCC1)n2CCSc1nc2ccccc2[nH]1 | -21% | /
CCOc1ccc(NC(=O)C2CC(=O)NC(=Nc3ccc(Cl)c(Cl)c3)S2)cc1 (stereo not given) | -4% | 3%
COC(=O)C1=C(c2ccc(OCc3ccccc3)cc2)C[C@@H]2CC[C@H]1N2C(=O)NCc1ccc([N+](=O)[O-])cc1 | ? | -27%
CC(=O)N1CCCc2cc(S(=O)(=O)N3CCCC(C(=O)NCc4ccc(Cl)cc4)C3)ccc21 (stereo not given) | -27% | -27%
O=C(CCc1nnc(COc2ccccc2)o1)NCc1ccccc1 | -10% | i
SMILES | VACV Venus inh | VACV mCherry inh
COc1ccc(NC(=O)C2C3C=CC(C3)C2C(=O)NCc2ccco2)c(OC)c1 (stereo not given) | -1% | /
Cc1ccc(Oc2ncccc2NC(=O)CC2(CC(=O)O)CCCC2)c2c1CCC2 | -9% | -3%
O=C(NCC(c1ccco1)S(=O)(=O)c1cccs1)c1ccc(F)cc1 (stereo not given) | -5% | -1%
O=C(Nc1nn(Cc2ccc(Cl)cc2)cc1Br)c1ccc(COc2ccccc2Cl)o1 | ? | /
Cc1ccc(NC(=O)N(C2CCCCC2)C(C)c2cccnc2)cc1C (stereo not given) | -11% | i
CCCc1ccc(OCC(=O)NNC(=S)NC(=O)c2ccco2)cc1 | ? | /
COc1ccc(/C=N/Nc2nnc(Cc3ccc(OC)c(OC)c3)c(=O)[nH]2)cc1 | -6% | -5%
CCN1C(C)=C(C)S/C1=C1\SC(=S)N(NC(C)=O)C1=O | -12% | i
COc1ccc(/C=C(/C#N)C(=O)Nc2cc(C)ccc2C)cc1C(=O)O | -13% | i
CC(=O)OC1CCC2(C)C3=CCC4(C)C(C(C)=O)=CCC4C3CCC2C1 (stereo not given) | -17% | -13%
CCC(c1nnnn1C1CCCCC1)N1CCN(C(=O)c2ccco2)CC1 (stereo not given) | -2% | 6%
O=C(CCCCCNC(=O)N1CCn2c1nc1ccccc12)N[C@@H](Cc1ccccc1)C(=O)O | -3% | -7%
CC(=O)N(CC1CCCO1)C1(C(=O)NC2CCCC2)CCCCC1 (stereo not given) | 2% | /
Cc1ccc(C(=O)CC2SC(N)=NC2=O)cc1 (stereo not given) | 0% | i
CC(=O)Nc1c(C(=O)N2CCOCC2)cnn1-c1ccc(C)c(C)c1 | -11% | i
COC(=O)c1ccccc1OCCOc1ccccc1C(=O)OC | -12% | -2%
C=CCNC(=S)NNC(=O)CCC(O)COCCC(C)C (stereo not given) | 0% | 3%
CCCCN1CCC(=O)C(C(=O)OCC)=C1C(=O)OCC | -5% | -9%
CCCCc1nc(Cl)c(C#N)c2c1CCCC2 | -8% | -18%
NC(=O)c1cc(NC(=O)CCCc2nc3ccccc3s2)cc(C(N)=O)c1 | 13% | i
CC(NC(=O)COC(=O)c1c[nH]c2ccccc12)c1ccccc1 (stereo not given) | -23% | -22%
Cc1cccc(OC(=O)c2sc(Cl)nc2C)c1 | -6% | -9%
COc1ccc(NC(=O)c2cc3c(=O)n(C)c4ccccc4c3s2)cc1OC | 5% | i
CN(C(=O)c1ccccc1Br)C1CCS(=O)(=O)C1 (stereo not given) | -6% | -14%
O=C1CCCN1CCC(=O)N1CCCC(N2CCN(c3ccccc3F)CC2)C1 (stereo not given) | -10% | i
CCC(=O)N1CCN(c2ccc(NC(=O)c3cc4ccccc4o3)cc2Cl)CC1 | 11µM* | ?
COc1ccc2nc(Nc3nc4ccc(NC(C)=O)cc4s3)sc2c1 | ? | -27%
COc1cccc2cc(-c3nnc(SCC(=O)Nc4ccc(NC(C)=O)cc4)n3C)oc12 | -4% | -10%
CC(=O)NCCC(=O)Nc1cc(S(=O)(=O)N2CCCCC2)ccc1N1CCN(C)CC1 | -9% | -11%
